KCNQ2 enhance – potentiators of rat KCNQ2 potassium channel; B-score at 10 µM; hit rate 0.54% among 310,000; AID 2239; CHO-K1 KCNQ2, FluxOR thallium flux fluorescence; hits give high values;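 active = fluorescence ratio B-score at least 3 SD of library B-scores, with initial fluorescence B-score within 3 SD, cut at about 5.3 in these data; same plate scores as AID 2156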;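 note: B-score of peak minus minimum over baseline fluorescence ratio after K+ and Tl+ stimulus; positive B-score means potentiation of KCNQ2 with more thallium influx and brighter signal; only the inactives scoring about 0 or higher are listed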
Target sequence (O88943 whole entry, looked up): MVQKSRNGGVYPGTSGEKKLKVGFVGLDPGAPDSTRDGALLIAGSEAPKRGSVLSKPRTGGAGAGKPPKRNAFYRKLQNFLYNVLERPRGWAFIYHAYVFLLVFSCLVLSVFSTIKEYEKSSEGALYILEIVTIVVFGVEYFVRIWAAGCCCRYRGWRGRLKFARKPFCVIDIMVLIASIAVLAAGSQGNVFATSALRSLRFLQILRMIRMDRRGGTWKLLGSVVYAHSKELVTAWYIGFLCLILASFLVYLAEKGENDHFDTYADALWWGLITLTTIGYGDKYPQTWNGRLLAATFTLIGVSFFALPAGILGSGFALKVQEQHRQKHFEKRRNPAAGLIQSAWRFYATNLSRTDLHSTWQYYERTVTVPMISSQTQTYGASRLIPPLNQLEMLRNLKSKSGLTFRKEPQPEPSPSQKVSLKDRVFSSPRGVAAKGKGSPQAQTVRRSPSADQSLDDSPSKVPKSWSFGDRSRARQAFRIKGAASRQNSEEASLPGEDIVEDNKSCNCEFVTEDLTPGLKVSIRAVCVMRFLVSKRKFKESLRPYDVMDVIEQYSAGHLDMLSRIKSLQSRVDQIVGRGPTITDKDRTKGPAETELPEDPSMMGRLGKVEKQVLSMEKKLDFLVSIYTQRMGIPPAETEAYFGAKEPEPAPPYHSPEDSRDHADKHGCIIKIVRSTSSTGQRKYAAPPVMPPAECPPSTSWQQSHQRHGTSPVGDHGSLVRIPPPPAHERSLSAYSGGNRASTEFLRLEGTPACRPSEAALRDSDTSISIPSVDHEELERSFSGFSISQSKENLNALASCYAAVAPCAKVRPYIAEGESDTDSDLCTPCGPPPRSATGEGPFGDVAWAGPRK
KCNQ2 enhance baseline – second read-out of KCNQ2 enhance, no call of its own (marks repeat the call); B-score; compound at 10 µM; measured here: initial fluorescence intensity artifact check;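 brightness before thallium and not channel activity; 0 = typical well and far values either way flag optical interference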
An asterisk follows results filed as active; & = joins results of further samples.

KCNQ2 enhance	KCNQ2 enhance baseline	Compound
0.42	-1.39	O=C(Cn1cnc2c(nnn2Cc2ccc(Cl)cc2)c1=O)OCc1ccccc1
0.45	-1.08	CC1(C)C2(C#N)C(N)=NC3(OCCO3)C12C#N (centres undefined)
0.72	-0.5	O=C(O)CCCC(=O)N1CCN(c2ncccn2)CC1
1.36	0.99	CCCN(CC(=O)Nc1ccccc1OC)C(=O)c1cccc(S(=O)(=O)Nc2ccc(OC)cc2)c1
0.02	2.65	C=CCn1c(SCC(N)=O)nnc1-c1cc(Br)ccc1O
0.34	1.86	COc1cc(NS(=O)(=O)c2ccc(N/C=C\C(=O)c3ccc(C)cc3)cc2)nc(OC)n1
0.01	0.21	Cc1ccc(S(=O)(=O)N2CCC(C(=O)NCCN3CCOCC3)CC2)cc1C
0.23	0.09	COc1cc2c(cc1OC)C(C1(O)CCCCC1)NCC2 (centres undefined)
2.87	1.35	C/C=C/c1ccc(OCC(=O)Nc2ccncc2)c(OC)c1
1.2	-1.5	O=C(Nc1cccc(F)c1)C1CCCN(c2cnccn2)C1 (centres undefined)
0.01	1.01	CN(CCO)CCOCCOc1cccc2ccccc12
0.36	-0.95	O=C1CN2CCC1C/C2=C\c1ccnc2c(Cl)cccc12 (centres undefined)
0.9	-1.99	O=C(c1ccc(S(=O)(=O)Nc2ccccc2)cc1)N1CCC1
1.55	0.68	CCN(CC)C(=S)SCC(=O)Nc1nc(=O)c2ccccc2s1
0.54	1.53	O=S(=O)(Cc1ccccc1)N1CCCCC1
0.04	1.59	Nc1ccccc1CNc1nc(NCCO)nc2c1ncn2CCN1CCOCC1
0.81	-0.45	O=C(Nc1ccc(Cl)cn1)c1ccc(-c2ccc(Cl)c(Cl)c2)o1
1.44	0.16	COc1ccccc1NC(=O)CSc1nnc(Cn2cnc3ccccc32)o1
0.81	-0.37	O=C(CSc1ccc(-c2cccnc2)nn1)N1CCCCCC1
0.9	0.01	O=C(Nc1nc2cc3c(cc2s1)OCO3)C1CC1
1.79	-1.77	O=C(CC1SCCNC1=O)Nc1cc(Cl)cc(Cl)c1 (centres undefined)
0.05	-1.22	COc1ccc(OC2C(=O)N(Cc3ccc(F)cc3)C2c2ccc(OC)c(OC)c2)cc1 (centres undefined)
0.4	-1.1	CCn1c(C)nc2cc(C(=O)N/N=C(\C)c3ccc(N4CCOCC4)cc3)ccc21
0.53	0.37	N/C(=N\OC(=O)c1ccco1)c1ccc(Cl)cc1
0.56	0.16	CCOC(=O)N1CCC(N(CCN(C)C)C(=S)Nc2cc(Cl)ccc2C)CC1
0.86	-1.83	O=C(Cn1cc([N+](=O)[O-])cn1)NCc1ccccc1
2.87	-1.55	COc1cccc(C(=O)NCCCNC(=O)c2cccc(OC)c2)c1
0.01	-0.49	O=S(=O)(Nc1ccc2c(c1)oc1ccccc12)N1CCCC1
0.56	1.72	C/C(N)=C(/C#N)C(=O)COC(=O)c1cc(-c2ccc(C)cc2)nc2ccccc12
1.65	0.73	O=C1C2C3CCC(C3)C2C(=O)N1Cc1ccco1 (centres undefined)
1.83	-2.04	COCCCN=Cc1c(C)[nH]n(-c2ccc(Br)c(C)c2)c1=O
0.47	0.27	C#CCOCCOCCOCCNc1nc(N2CCN(C(=O)Cn3cc(CCCCN)nn3)CC2)nc(N2CCN(C(=O)Cn3cc(CC(C)O)nn3)CC2)n1 (centres undefined)
0.5	-0.46	COc1ccc(-c2nc(CS(=O)CC(=O)NC3CCCCC3C)c(C)o2)cc1 (centres undefined)
0.02	-0.52	CCCOc1ccc(-c2nn(-c3ccccc3)cc2/C=C2\SC(N)=NC2=O)cc1
1.08	0.12	CCCCCC(=O)Nc1cccc(C2=NOC3(C2)C[C@@H](C(N)=O)N(C(=O)CC(c2ccccc2)c2ccccc2)C3)c1 (some centres undefined)
0.86	0.37	COc1ccccc1/C=N/NC(=O)c1nnn(-c2nonc2N)c1-c1ccccc1
0.09	-1.93	CSCC[C@H](NC(=O)c1ccc(Cl)c([N+](=O)[O-])c1)c1nc2ccccc2[nH]1
1.53	0.58	COc1cc(/C=N/NC(=O)c2nnn(-c3nonc3N)c2-c2cccs2)ccc1O
0.68	0.6	CCOC(=O)c1[nH]cnc1C(=O)NC1CCCCC1
0.8	0.46	CSc1nsc(/C=C/Nc2ccc(C)c(C)c2)c1C#N
0.06	-0.13	O=C(Cc1nc(=O)c2ccccc2s1)Nc1ccccc1
0.09	-2.51	Cc1onc(-c2c(F)cccc2Cl)c1C(=O)Nc1cccc(S(=O)(=O)NC2=NCCC2)c1
0.78	-0.06	O=C(CCc1nc2ccccc2c(=O)[nH]1)NC1CCN(Cc2ccccc2)CC1
0.55	3.08	CC(=O)Cn1c(=O)c2c(nc3n2CCCN3Cc2ccccc2)n(C)c1=O
1.31	-1.22	O=C(NC(=S)Nc1ncccn1)c1ccc(Cl)cc1Cl
0.12	-0.48	CCOc1ccc(C2CC(c3ccc(CC)cc3)Nc3nc(N)nn32)cc1 (centres undefined)
1.2	1.57	O=C(N/N=C/c1cccnc1)c1cccc(NC(=O)c2ccc(Cl)cc2)c1
1.24	-1.78	NC1=NC2CS(=O)(=O)CC2S1 (centres undefined)

Compound profiles, as listed above. Order of values: KCNQ2 enhance	KCNQ2 enhance baseline
`CCOc1ccc(C2CC(c3ccc(CC)cc3)Nc3nc(N)nn32)cc1` (centres undefined) as listed: 0.12	-0.48
`O=C(N/N=C/c1cccnc1)c1cccc(NC(=O)c2ccc(Cl)cc2)c1` as listed: 1.2	1.57
`O=C(CCc1nc2ccccc2c(=O)[nH]1)NC1CCN(Cc2ccccc2)CC1` as listed: 0.78	-0.06
`O=C(NC(=S)Nc1ncccn1)c1ccc(Cl)cc1Cl` as listed: 1.31	-1.22
`O=C(Cc1nc(=O)c2ccccc2s1)Nc1ccccc1` as listed: 0.06	-0.13

(continued)
KCNQ2 enhance	KCNQ2 enhance baseline	Compound
0.68	1.41	COCCNC(=O)C1CC2Cn3c(nc4cc5ccccc5cc43)C2N1C (centres undefined)
2.53	-0.92	CCOC(=O)c1c(NC(=O)CC2SC(N)=NC2=O)sc2c1CCC(C)C2 (centres undefined)
0.77	0.61	O=C(c1cc(C(=O)c2ccco2)cc(C(=O)c2ccco2)c1)c1ccco1
1.14	-0.13	CCCCNC(=O)c1[nH]c(C)c(C(C)=O)c1C
0.58	-0.01	CCCCSc1nc2sc3c(c2c(=O)n1-c1ccccc1)CCN(C)C3
0.01	1.2	O=C(CSc1ccc(-c2ccccn2)nn1)N1CCCCC1
0.02&1.88	-0.04&-0.56	CN(C)CCC(c1ccc(Cl)cc1)c1ccccn1 (centres undefined)
1.23	1.02	CCOC(=O)c1oc2ccccc2c1NC(=O)c1ccco1
1.26	-1.3	Nc1cccnc1-n1nc(C(F)(F)F)cc1C(F)(F)F
2.22	0.35	CCOC(=O)C1CCN(C(=O)CN(c2ccc(Oc3ccccc3)cc2)S(C)(=O)=O)CC1
0.13	0.04	CCN(CC)c1ccc(NC(=O)c2ccc3c(c2)c(C)c(C)n3C)cc1
0.03	0.83	COc1ccc(Br)c2oc(SC)cc(=O)c12
0.15	0.44	COc1ccc(C2c3[nH]c4ccccc4c3C[C@H]3C(=O)N(c4ccccc4C(=O)N4CCC[C@H]4C(=O)O)C(=O)N23)cc1 (some centres undefined)
1.17	-1.57	COc1ccccc1NS(=O)(=O)c1ccc(Cl)c(NC(=O)C(C)N2C(=O)c3ccccc3C2=O)c1 (centres undefined)
5.28*	0.11*	Cc1cc2c(ncn2C(C)C)c(NS(=O)(=O)c2ccc(F)cc2)c1C
0.31	0	COc1cc(C(C)=O)ccc1Oc1ncnc2c1cnn2-c1ccc(C)c(C)c1
0.35	-0.52	CC(C)(C)C(=O)NC(n1cnc2c(N3CCOCC3)ncnc21)C(Cl)(Cl)Cl (centres undefined)
1.49	-0.88	CC(=O)N1CCc2[nH]c3ccccc3c2C1
0.51	0.92	COC(=O)CCCC(=O)N1CCCC(CCC(=O)NCc2ccc(F)c(F)c2)C1 (centres undefined)
1.94	-0.96	NCC(c1ccccc1)c1c[nH]c2ccccc12 (centres undefined)
0.13	-0.63	COc1ccc(NC(=O)CSC2=NN3CCCC(=O)N=C3S2)c(OC)c1
0.55	-0.42	O=C(c1cnc2ccccn2c1=O)N1CCCc2ccccc21
2.8	-1.83	O=C(NCc1ccccc1)C(c1cccnc1)N(Cc1ccco1)C(=O)c1ccccn1 (centres undefined)
0.08	2.25	CCOc1ccc2nc(SCC(=O)NC(=O)NCc3ccco3)[nH]c2c1
0.59	-0.42	COc1ccc(OCCOCCN2CCc3ccccc3C2)cc1
0.55	-0.28	Cc1ccc2nc3c(cc(C#N)c(=N)n3Cc3cccnc3)c(=O)n2c1
2.27	0.09	CCn1cc(CN2CCCC(C(=O)Nc3ccc(-c4cscn4)cc3)C2)cn1 (centres undefined)
0.6	-0.1	COC(=O)CCC(=O)Nc1sc(Cc2ccccc2)c(C)c1C(N)=O
1.48	-0.5	COc1ccc(CNc2ncc(-c3ccccc3)n2C)cc1
1.07	-2.51	C/C(Cc1ccccc1)=N\NC(=O)c1cccnc1
0.05	-0.24	CN(C)/C(=N\O)c1c(Cl)cccc1Cl
0.68	0.15	CC12CCC(=O)N1C(C(=O)NNC(=O)c1ccccc1)CS2 (centres undefined)

Copied from the listing (two entries):
KCNQ2 enhance	KCNQ2 enhance baseline	Compound
0.59	-0.42	COc1ccc(OCCOCCN2CCc3ccccc3C2)cc1
0.55	-0.28	Cc1ccc2nc3c(cc(C#N)c(=N)n3Cc3cccnc3)c(=O)n2c1

As entered above:
`COc1ccc(OCCOCCN2CCc3ccccc3C2)cc1` @ KCNQ2 enhance baseline: -0.42
`CC12CCC(=O)N1C(C(=O)NNC(=O)c1ccccc1)CS2` (centres undefined) @ KCNQ2 enhance: 0.68
`C/C(Cc1ccccc1)=N\NC(=O)c1cccnc1` @ KCNQ2 enhance baseline: -2.51

Carrying on:
KCNQ2 enhance	KCNQ2 enhance baseline	Compound
1.37	0.11	Clc1ccccc1Cn1nnc2ccccc21
1.17	1.49	Cc1ccc(-c2nnc3c4ccccc4c(C)nn23)cc1S(=O)(=O)N1CCN(CCO)CC1
1.26	-2.11	Cc1ccc(S(=O)(=O)Nc2ccc(Cl)cn2)cc1C
0.66	0.13	Cc1c(-c2ccccc2)nc(N)c(C#N)c1-c1ccco1
0.79	-0.39	COc1ccccc1OCCCOc1c(C)cc(C)cc1Br
1.14	0.21	COc1ccccc1C(=O)Nc1cccc(NC(=O)c2ccccc2C)c1
0.54	-1.06	CCC1OC(c2ccc([N+](=O)[O-])cc2)=Nc2ccccc21 (centres undefined)
1.03	0.06	CC1CCCCN1CCNC(=O)c1ccc2c(=O)n(CCc3ccccc3)c(=O)[nH]c2c1 (centres undefined)
0.81	-0.66	NS(=O)(=O)c1ccc(S(=O)(=O)N(CCc2ccccc2)Cc2ccccn2)cc1
1.76	-0.58	COc1ccc(-n2nc(C(=O)NCC(=O)N3CCN(C)CC3)c3ccccc3c2=O)cc1OC
1.47	-0.81	Cn1c(=O)cc(OCC(=O)NCCCN2CCN(c3ccccc3F)CC2)c2ccccc21
0.76	0.46	Cc1ccn(CCC(=O)N2c3ccccc3CC2C)n1 (centres undefined)
2.77	-0.78	N/C(=N\OC(=O)c1ccc2ccccc2c1)c1ccncc1
0.89	0.03	O=C1c2cc(S(=O)(=O)N(CCO)CCO)ccc2-c2ccc(S(=O)(=O)N(CCO)CCO)cc21
1.64	-0.79	CCc1nnc(NC(=O)c2ccc(-c3ccccc3F)o2)s1
1.76	1.14	N#Cc1ccc(C(=O)NC2=NCCS2)cc1
0.41	-0.04	CCNC(=S)N(Cc1cc2cc(C)c(C)cc2[nH]c1=O)C1CCCC1
1.94	-2.63	CC(OC(=O)CCN=C1NS(=O)(=O)c2ccccc21)C(=O)c1ccccc1 (centres undefined)
0.65	-0.88	CCC(=O)Nc1cccc(NC(=O)c2ccc(C)c([N+](=O)[O-])c2)c1
2.01	-0.64	O=C(NN=c1c(=O)c2ccccc2c1=O)c1ccccc1
6.7*	-0.52*	COc1ccc(-c2oc3ccccc3c(=O)c2OC(C)=O)cc1
0.47	1.25	CCC(=O)N(CCc1ccccc1)Cc1cc2cc3c(cc2[nH]c1=O)OCO3
0.35	0.19	N#CCSc1nc2ccccc2c(=O)n1CC1CCCC1
1.07	-0.58	CCOC(=O)c1ccc(-n2c(=S)sc3c(=O)[nH]c(C)nc32)cc1

Brought forward from above: 3 compounds; new compounds follow.
KCNQ2 enhance	KCNQ2 enhance baseline	Compound
0.47	1.25	CCC(=O)N(CCc1ccccc1)Cc1cc2cc3c(cc2[nH]c1=O)OCO3
0.35	0.19	N#CCSc1nc2ccccc2c(=O)n1CC1CCCC1
1.07	-0.58	CCOC(=O)c1ccc(-n2c(=S)sc3c(=O)[nH]c(C)nc32)cc1
0.12	2.37	Cc1ccc2cc(CCNS(=O)(=O)c3ccc(Cl)cc3)c(=O)[nH]c2c1C
0.52	0	O=C(CCNC(=O)c1ccco1)Nc1ccc(Cl)cc1
1.29	0	Cc1oc(-c2cc(F)cc(F)c2)nc1CN1CCN(C(=O)c2ccco2)CC1
1.54	-1.91	Cc1ccc(NC(=O)c2sc(Cl)nc2C)c(C)c1
1.84	0.9	CC(=O)Nc1nonc1-c1nc2ccccc2n1Cc1ccccn1
0.49	0.3	CCOC(=O)C1CCN(C(=O)CSc2nccc(C)n2)CC1
0.03	0.06	COc1ccc(-c2cc(=O)oc3cc(OCC(=O)Nc4ccccn4)ccc23)cc1
0.23	0.28	Cc1ccc2nc(SCC(=O)NCc3cccs3)[nH]c2c1

Not all compounds are listed (hit frequency here may not be typical).
